High-throughput results deposited in PubChem BioAssay by National Center for Advancing Translational Sciences (NCATS).
nsP2pro inh – blocks chikungunya virus nsP2 protease peptide cleavage; Q8JUX6; FRET peptide cleavage, nsP2pro, fluorescence 1 h; Potency, µM (highest dose often 24.9 µM), without a hit: at the top dose activity change, negative = inhibition, usual class: inhibitors; 1.1% of 31,000 active; AID 1964107; active means well fitted inhibition curve with a large enough effect; inconclusive means small, poorly fitted or top-dose-only effect; inactive means no such curve, though single readings can be large or run the other way; note: nearly all actives have a fitted effect of over 60% in size; a reference inhibitor and vehicle were the controls
* hit, by the source's call; i = inactive; ? = inconclusive; & = joins results of further samples; [ ] = dose if it differs, or a comment. % is set by controls: 0 for no effect and ±100 for the full control effect; potency is the fitted concentration of half-maximal effect.

SMILES | nsP2pro inh
CS(=O)(=O)c1ccc(OCC2(CNCc3cccc(C(F)(F)F)c3)C[C@@H](O)[C@@H](O)C2)cc1 (some centres undefined) | -8%
CCn1nc(C)c(CNC(=O)c2cc(COc3ccc4ncccc4c3)on2)c1C | i
Cc1cnc(-c2ccccc2C(C)C)nc1NCc1cccnc1 | -6%
Clc1ccccc1CSc1nncn2c1cc1occc12 | -10%
Cc1ccc2nc(N(Cc3cccnc3)C(=O)COc3ccccc3)sc2c1 | -21%
CCC(C(=O)NCCc1ccccc1)n1nc(C)n2c(cc3sccc32)c1=O (centres undefined) | -11%
CNC(=O)[C@@H](c1ccccc1)N1CCc2cc(OC)c(OC)cc2[C@@H]1CCc1ccc(C(F)(F)F)cc1 | 8%
Cc1ccccc1C1=CCN(C)CC1 | -4%
Cc1ccc(C)c(N2CCN(C(=O)Cn3ncc4ccsc4c3=O)CC2)c1 | -19%
CCC(Sc1ncccc1C(=O)Oc1ccccc1Cl)C(=O)Nc1ccccc1OC (centres undefined) | -26%
O=C(c1ccc2c(c1)CCN2S(=O)(=O)c1ccccc1)N1CCN(c2cccc(Cl)c2)CC1 | -23%
CCCn1c(C)nc2c(NCc3ccccc3)nc(C)nc21 | -4%
Cc1ccc(NC(=O)Cn2cc(C(=O)C3CC3)c3ccccc32)cc1 | -21%
COC(=O)C1=CO[C@@H](O[C@@H]2O[C@H](CO)[C@@H](O)[C@H](O)[C@H]2O)[C@@H]2[C@@H](C)[C@@H](OC(=O)/C=C/c3ccccc3)[C@@H](O)[C@H]12 | ?
CCN(CC)C(=O)N1CCC(c2noc(-c3ccccc3)n2)C1 (centres undefined) | -2%
COc1ccc(F)cc1-c1ccc(CN2CCC(N[S+](=O)([O-])c3cccs3)C2)cc1 (centres undefined) | -18%
CC(C)(C)C(=O)OCOP(=O)(COCCn1cnc2c(N)ncnc21)OCOC(=O)C(C)(C)C | -13%&23%
CCC(Oc1ccccc1)C(=O)Nc1nnc(S(=O)(=O)N(CC)CC)s1 (centres undefined) | -11%
Cc1ccc([S+](=O)([O-])NCCNC(=O)c2ccc(-c3cccc(C(F)(F)F)c3)cc2)cc1 | i
Nc1ncnc2c1nc(N)n2[C@@H]1O[C@H](CO)[C@@H](O)[C@H]1O | 5%
CN(C)Cc1c[nH]c2ccccc12 | -10%
CNc1nc2c(s1)C(c1cccc(F)c1)CC(=O)N2 (centres undefined) | 3.2µM*
CCCC(=O)C1=C(c2ccc(C)c(C)c2)N(C(=O)CCC)n2c(CC)nnc2S1 | -21%
COc1ccccc1N1CCN(C(=O)c2cc3c(=O)n(Cc4cccs4)ccc3nc2C)CC1 | -13%
COc1ccc(OCC(O)Cn2c(NCCO)nc3c2c(=O)n(C)c(=O)n3C)cc1 (centres undefined) | ?
Cc1cc(C)nc(NC(=S)N2CCN(c3ccc4ccccc4n3)CC2)c1 | -2%
CSC(=O)OCC1=C[C@@H]2OC(=O)C3=CO[C@@H](O[C@@H]4O[C@H](CO)[C@@H](O)[C@H](O)[C@H]4O)[C@H]1[C@@H]32 | 10%[10 µM]
COCCCNC(=O)c1cnn(-c2ccccc2Cl)c1C1CCN(C(=O)OC(C)(C)C)CC1 | 10%
O=C(NCCCc1ccccc1F)[C@H]1CCC[C@@H](O)C1 | -1%
COc1cc(F)c(S(=O)(=O)N2CCN(S(=O)(=O)c3ccc(NC(C)=O)cc3)CC2)c(F)c1 | 4%

Ordered by length of the SMILES (highest first): part of the list above
SMILES | nsP2pro inh
COc1cc(F)c(S(=O)(=O)N2CCN(S(=O)(=O)c3ccc(NC(C)=O)cc3)CC2)c(F)c1 | 4%
COCCCNC(=O)c1cnn(-c2ccccc2Cl)c1C1CCN(C(=O)OC(C)(C)C)CC1 | 10%
CNc1nc2c(s1)C(c1cccc(F)c1)CC(=O)N2 (centres undefined) | 3.2µM*

Two of these compounds in another layout.
Structure	nsP2pro inh
Cc1cc(C)nc(NC(=S)N2CCN(c3ccc4ccccc4n3)CC2)c1	-2%
CSC(=O)OCC1=C[C@@H]2OC(=O)C3=CO[C@@H](O[C@@H]4O[C@H](CO)[C@@H](O)[C@H](O)[C@H]4O)[C@H]1[C@@H]32	10%[10 µM]

Next section.
SMILES | nsP2pro inh
O=C(CCNC(=O)c1cnccn1)NC1CCCc2c1[nH]c1ccc(Cl)cc21 (centres undefined) | -17%
CCC1CCCCN1C(=O)c1nn(-c2ccc(OC)cc2)c(=O)c2c1c1ccccc1n2C (centres undefined) | -15%
Oc1ccccc1-c1ccccc1 | -10%
C/C=C1/[C@H](O[C@@H]2O[C@H](CO)[C@@H](O)[C@H](O)[C@H]2O)OC=C(C(=O)OC)[C@H]1CC(=O)OCCc1ccc(OC(=O)C[C@@H]2C(C(=O)OC)=CO[C@@H](O[C@@H]3O[C@H](CO)[C@@H](O)[C@H](O)[C@H]3O)/C2=C/C)cc1 | 11%[5.1 µM]
COC(=O)c1c(NC(=O)Cc2coc3cc(C)ccc23)sc2c1CCC2 | -6%
Cc1ccc(NC(=O)NCCOCCn2c(=O)oc3ccccc32)cc1F | -13%
CC(C)OC(=O)C(C)(C)Oc1ccc(C(=O)c2ccc(Cl)cc2)cc1 | -15%&-1%
CC(=O)c1ccc(N2CCN(C(=O)CCn3cnc4onc(-c5ccc(F)cc5)c4c3=O)CC2)cc1 | -11%
Cc1cccc(-n2cnc3cc(C(=O)N4CCCC4)ccc32)c1 | -2%
Cc1ccc(Cl)cc1NC(=O)C(=O)NCC(c1cccnc1)N1CCc2ccccc21 (centres undefined) | -1%
OC[C@H]1CCN(c2ccnc3c(C(F)(F)F)cccc23)C[C@H]1O | 3%
O=C(NCc1ccc(Cl)cc1)c1cnc(N2CCOCC2)c2ccccc12 | -15%
CS(=O)(=O)OCCCNCCCOS(C)(=O)=O | -13%
Cc1cccc(NC(=O)c2c(NC(=O)c3cccs3)sc3c2CCC(C)C3)c1 (centres undefined) | -19%
CC(C)c1nnc(C2CN(C(=O)Cc3ccccc3Cl)CC23CCOCC3)o1 (centres undefined) | i
Cc1cc(C)nc(NC(=S)N2CCN(S(=O)(=O)c3cccc(C(F)(F)F)c3)CC2)c1 | -4%
CCNC(=O)c1c(C)oc2c1CN(Cc1ccc(Br)o1)CC2 | ?
Cc1ccc(NC(=O)c2sc3ncn(Cc4cccc(F)c4)c(=O)c3c2C)c(Br)c1 | -17%
NC(=O)C1(c2nc(C3CCOC3)nn2-c2cccc3cccnc23)CC1 (centres undefined) | 0%
Cc1cc(O)cc2c1O[C@](C)(CCC[C@H](C)CCC[C@H](C)CCCC(C)C)CC2 | -3%

Gathered by group, the compounds so far with two or more sulfur atoms
SMILES | nsP2pro inh
COc1ccc(F)cc1-c1ccc(CN2CCC(N[S+](=O)([O-])c3cccs3)C2)cc1 (centres undefined) | -18%
CCC(Oc1ccccc1)C(=O)Nc1nnc(S(=O)(=O)N(CC)CC)s1 (centres undefined) | -11%
COc1cc(F)c(S(=O)(=O)N2CCN(S(=O)(=O)c3ccc(NC(C)=O)cc3)CC2)c(F)c1 | 4%
CS(=O)(=O)OCCCNCCCOS(C)(=O)=O | -13%
Cc1cccc(NC(=O)c2c(NC(=O)c3cccs3)sc3c2CCC(C)C3)c1 (centres undefined) | -19%
Cc1cc(C)nc(NC(=S)N2CCN(S(=O)(=O)c3cccc(C(F)(F)F)c3)CC2)c1 | -4%

Additional results follow:
SMILES | nsP2pro inh
COc1ccc(C2Nc3ccccc3C(=O)N2Cc2ccccc2)cc1COc1ccccc1OC (centres undefined) | i
CN(C)CCCN1c2ccccc2CCc2ccc(Cl)cc21 | -11%&10%
C=CC(=O)Nc1cccc(Nc2nc(Nc3ccccc3)ncc2C)c1 | 7%
C=C1CCC2C(C)(C(=O)O)CCCC2(C)C1CCC(C)CC(=O)O (centres undefined) | 65%[activator]
CC(=O)OC1(C)CC(O)C2(O)C=COC(OC3OC(CO)C(O)C(O)C3O)C12 (centres undefined) | -2%[10 µM]
Cc1ccccc1CN1CCOc2cc([S+](=O)([O-])Nc3cccnc3)ccc2C1 | i
N#Cc1cccc(S(=O)(=O)N[C@@H]2CCOC[C@H]2OCc2cscn2)c1 | 2%
CNC(C)[C@@H](O)c1ccc(O)cc1 (some centres undefined) | -8%
COc1cccc(CNC(=O)c2ccc(CN3CC(=O)N4CCCCC4C3=O)cc2)c1 (centres undefined) | -18%
Cc1ccc(S(=O)(=O)Nc2cccc(-c3ccc(N4CCCCC4)nn3)c2)s1 | -22%
CCC(=O)N1CCc2sc(C(=O)NCc3ccc4c(c3)OCO4)cc2C1 | -2%
Cc1ccc(-c2nc3ccccc3[nH]2)cc1NC(=O)c1ccc(-c2cccc(Cl)c2)o1 | ?
COc1cccc(CNC(=O)Cn2nc(C)c3sc4ccccc4c3c2=O)c1OC | -21%
CC(=O)Nc1c(C)nn(-c2ccccc2)c1N1CCC(C(=O)NCc2ccc(F)cc2)CC1 | -12%
CCOC(=O)O[C@]1(C(=O)OCCl)CC[C@H]2[C@@H]3CCC4=CC(=O)C=C[C@]4(C)[C@H]3[C@@H](O)C[C@@]21C | -5%
CCc1cnc2c(c1SCC(=O)NCc1ccc(C)cc1)c(=O)n(C)c(=O)n2C | -26%
COc1ccc(-c2nc3ccccc3c(=O)n2Cc2ccc(CNC(=O)CO)cc2)cc1COc1ccc(NC(C)=O)cc1 | -27%
COc1cccc(-n2cc(C(=O)OCc3ccc(Cl)cc3)c3ccccc3c2=O)c1 | -15%
CC(=O)N1CCN(c2nc(-c3ccc(Br)cc3)cs2)CC1 | 1%
CCOc1ccc(CCNC(=O)c2cc3ccccc3n2Cc2cccc(C)n2)cc1OCC | 3%
COc1ccc(-n2nc(C(=O)Nc3ccc(C)cn3)c3c4ccccc4n(C)c3c2=O)cc1Cl | -18%
O=c1[nH]c(CN2CCOCC2)nc2sc3c(c12)CCCC3 | 1%
CCNC(=O)N1C[C@H]2OC(=O)N(Cc3ccc(OC)c(OC)c3)[C@H]2C1 | i
CC1CCC2(C(=O)O)CCC3(C)C(=CCC4C5(C)CCC(O)C(C)(CO)C5CCC43C)C2C1(C)O (centres undefined) | 21%[10 µM]
COc1cc(OC)c(NC(=O)c2cnn(-c3ccccc3)c2-n2cccc2)cc1Cl | -8%
Cc1nc(-c2ccc(F)cc2)n(Cc2ccc(F)c(F)c2)c(=O)c1CCO | 3%
O=C(O)c1ccc(-c2ccc3ncnc(NCC4CCCO4)c3c2)o1 (centres undefined) | 4%
CC(C)CNC(=O)c1cc(-c2ccsc2)nc2c1cnn2C | i
N#Cc1c(-c2cccc([N+](=O)[O-])c2)no[n+]1[O-] | i
CCN(CC)c1cc2c(cc1F)c(=O)c(S(=O)(=O)c1ccc(C)cc1)cn2Cc1ccc(F)cc1 | -12%
NC(=O)C1CCN(c2cc(-c3noc([C@@H]4CCCN4Cc4ccc(Cl)cc4)n3)ccn2)CC1 | i
Cc1ccc(S(=O)(=O)N2CCCc3cc(NC(=O)c4ccc(F)c(F)c4)ccc32)cc1 | -20%
CC(C)=CCC/C(C)=C/CCC1(C)Oc2c(c(O)cc3c2CN(C(CCC(=O)O)C(=O)O)C3=O)CC1O (centres undefined) | ?
CC(=O)OC[C@]12C[C@H](OC(C)=O)C(C)=C[C@H]1O[C@@H]1[C@H](O)[C@@H](O)[C@@]2(C)[C@]12CO2 | -21%
Cc1ccc(OCC(=O)Nc2nnc(S(=O)(=O)N3c4ccccc4CC3C)s2)cc1 (centres undefined) | -33%
CCOC(=O)Oc1c(OC)cc(C(=O)O[C@@H]2C[C@@H]3CN4CCc5c([nH]c6cc(OC)ccc56)[C@H]4C[C@@H]3[C@H](C(=O)OC)[C@H]2OC)cc1OC | 2%
O=C(CCc1conc1-c1ccccc1F)NCc1cccc(C(F)(F)F)c1 | -14%
Cc1cn2nc(C(=O)Nc3ccc4c(c3)OCCO4)cc2c(N(C)Cc2ccccc2)n1 | i
Clc1cccc(-n2nnnc2NCc2ccccc2Oc2ccccn2)c1Cl | -8%
COc1ccc(NC(=O)CSCc2cnn(-c3ccccc3)c2-n2cccc2)cc1 | ?
Cc1ccccc1-c1nc(CN2CCC(C(=O)NC(C)C)CC2)c(C)o1 | -16%
O=C(c1ccc[nH]c1=O)N1CC(F)(F)C[C@H]1c1nc(C2CC2)no1 | 3%
CCN(Cc1ccccc1)C(=O)CCC[C@H]1NC[C@@H]2CC1CN(Cc1ccccc1)C2 | 5%
Cn1nnnc1C1CCCN(C(=O)CCC2CCCC2)C1 (centres undefined) | 3%
CCOc1ccc(CCNC(=O)Cn2nc(-c3ccc(C)cc3)ccc2=O)cc1OCC | -16%
COc1cccc(NC(=S)N2CCN(c3ccc(Cl)cc3Cl)CC2)n1 | -26%
C=CCN1CCN(C(=O)[C@@H]2Cc3c[nH]c4cccc(c34)[C@H](CC(C)C)N2)CC1 | -18%[39.2 µM]
O=C(Nc1ccc(Cl)c(Cl)c1)Nc1nnc(-c2ccc(F)cc2)s1 | -5%
CC(C)=CC(=O)N[C@H]1C[C@@H](C(=O)N[C@H](Cc2ccccc2)C(N)=O)N(C(=O)C=C(C)C)C1 | -6%[39.2 µM]
O=C1c2ccccc2C(=O)C1c1ccc(Cl)cc1 | -19%
Other structures follow.
SMILES | nsP2pro inh
COc1cc(OC)c(OC)cc1CN1CCc2nc(N3CCN(C)CC3)ncc2C1 | -16%
CCCCc1ccc(NC(=O)CSc2nc3ccccc3nc2N2CCOCC2)cc1 | -16%
COc1ccc(Cn2cnc3cccnc32)cc1 | -19%[39.2 µM]
O=C(CN1C(=O)COc2ccc(S(=O)(=O)NC3CCCC3)cc21)NCc1ccc(Cl)cc1 | -17%
CC(=O)c1cc([N+](=O)[O-])c(Sc2ccc(F)cc2F)s1 | -21%&1%
CCOC(=O)CNC(=O)[C@@H]1CCCN1C(=O)Cc1ccccc1 | -8%
C=C1C(=O)OC2/C=C(\CO)CC/C=C(\C=O)C(OC)C(OC(=O)C(C)CC)C12 (centres undefined) | 0%[10 µM]
Cc1cc2ncc(-c3ccccc3)nc2cc1C | 5%
CN(C)C[C@@H]1CN(C2CCOCC2)C[C@H]1NC(=O)c1cc2ccccc2[nH]1 | ?

This is a subset; count on the stated rates, not on these rows.
